Screens (PubChem BioAssay)
PrP UTR inh – inhibition of PrP 5' UTR reporter expression | 0.35% of 340,000 active | inhibition, % (concentration not given with the values) | cell-based PrP 5' UTR mRNA reporter, plate reader | AID 488862, 2010;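 active = every replicate at 50% or more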;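 also: 0 = median of the neutral control wells; tested in H4 reporter cells; numbers are from one replicate; inactives centre near -14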
Sa ugtP lethal – growth inhibition of ugtP-null S. aureus, primary screen, RN4220 ugtP deletion, OD600. growth inhibition, % (no concentration beside the values). 0.54% of 330,000 active. 16 h; some inactives read as strong as hits;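 active = z-score under -3 and OD600 up to 0.15 on both plates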;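 also: plate controls were untreated wells for no effect and antibiotic for full effect; wells of about 80 µL received 100 nL stock; the first replicate is given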
BJeLR lethal – MLPCN primary cell-based screen for lethality selective to Ras in HRASV12 cells | 0.17% of 300,000 active | BJeLR (HRASV12) viability, CellTiter-Glo ATP luminescence, 48 h; reference of the scale not given here | AID 1554, 2009 | inhibition, % (concentration not given with the values);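 active = replicate mean above 50%; inconclusive = above 50% but judged a plate artefact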;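 also: 50 nL library stock added to about 25 µL; numbers are from one replicate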
Sa RN4220 lethal – growth inhibition of S. aureus RN4220, primary screen, OD600 | 16 h | inhibition, % (concentration not given with the values) | 0.33% of 330,000 active;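 active = z-score of -3 or lower and OD600 up to 0.18 on both plates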;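 also: plate controls were untreated cells for no effect and reference antibiotic for full effect; stock transfer was 100 nL into about 80 µL; one replicate is shown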
Mtb hypoxia inh – PubChem AID 1159583; M. tuberculosis hypoxia-regulated fluorescent reporter, fluorescence; fluorescence inhibition, % (concentration not given with the values); 0.1% of 300,000 active;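 active = 35 to 45% if threefold the growth effect, above 45% if 1.5-fold the growth effect; inactive = the rest, general growth blockers included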;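 also: wells of about 50 µL received 100 nL stock; 0% = vehicle wells and 100% = reference inhibitor wells; whole bacteria with a GFP reporter of the hypoxia response; strong numbers were not always called active; many hits fall short of the cut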
Autofluor counter – compound fluorescence in toxin protease inhibitor counterscreen | AID 624483 | compound autofluorescence counterscreen, microsphere flow cytometry; active compounds read high | 3.1% of 360,000 active | fluorescence intensity (concentration not given with the values);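 active = at least 3 SD above the mean of all compounds, about 16000 in these data; inconclusive = too few beads counted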;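 also: 100 nL of 1 mM stock went into each well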
Mtb hypoxia inh growth – also measured in Mtb hypoxia inh; calls as there; growth inhibition, %; measured here: M. tuberculosis growth (absorbance);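 0% = vehicle and 100% = reference antibiotic; read after six days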
* marks the source's active call; other numbers are inactive results; ? = inconclusive; . = no result given; & = joins results of further samples. Compounds as they come (roughly 3.9% active in at least one column).

SMILES | PrP UTR inh | Sa ugtP lethal | BJeLR lethal | Sa RN4220 lethal | Mtb hypoxia inh | Mtb hypoxia inh growth | Autofluor counter
c1ccc(Cc2nnc3sc(C4COc5ccccc5O4)nn23)cc1 (centres undefined) | -17.4 | 4.3 | 0.4 | 35.2 | 7.3 | 1.9 | 10537
CCN(CC)CCOC(=O)c1ccccc1Br | -3.9 | 3.5 | -9.1 | 2.4 | -3.9 | -0.3 | 3936
COc1ccc(C(CC(=O)NCCCN2CCOCC2)NS(=O)(=O)c2ccc(C)cc2)cc1 (centres undefined) | -21.7 | 0.8 | -1.4 | 6.4 | . | . | 5020
CCOC(=O)C1=NN(C(=O)c2ccccc2)C(O)(c2ccc(C)cc2)C1 (centres undefined) | -16.4 | -11.6 | 4.1 | 0.7 | -6.2 | -11.6 | 2512
Cc1c(C(=O)Nc2ccccc2[N+](=O)[O-])csc1-c1ccccc1 | -161.8 | 46.5 | 4.7 | 2.0 | 3.6 | 4.3 | 2581
COc1ccccc1OCCNC(=O)c1ccco1 | -18.4 | -5.9 | -4.0 | -3.8 | -6.7 | 4.4 | 6391
Cc1cccc(OCCCC(=O)Nc2ccc(N(C)C)cc2)c1 | -0.9 | -1.1 | -6.3 | -0.4 | 0.2 | 0.9 | 1924
Cc1ccc(NC(=O)Cn2c(=O)c3cccn3c3ccccc32)c(C)c1 | -28.9 | 4.4 | -2.9 | 8.8 | 12.8 | 6.6 | 5354
CN(C(=O)CNc1ccccc1Cl)C1CCS(=O)(=O)C1 (centres undefined) | -9.9 | -3.7 | . | 3.8 | 21.4 | 10.7 | 4080
COc1ccc(-n2c(SCC(=O)NCCCN3CCCC3=O)nnc2C(C)N2CCCCC2)cc1 (centres undefined) | -34.8 | 20.5 | 4.4 | 9.8 | 2.4 | 6.8 | 3311
Fc1ccc(C=NNc2nn[nH]n2)cc1 | . | -0.9 | . | -0.1 | -10.9 | 3.4 | .
Cc1cc(C)n2nc(C)[n+](C)c2n1 | -19.8 | 9.2 | 5.9 | -1.6 | . | . | 2799
Cc1ccccc1N1CCN(S(=O)(=O)c2ccccc2)CC1 | -24.7 | 41.3 | 8.8 | 9.2 | 20.3 | 10.2 | 9460
CN(C(=O)CCNC(=O)Cn1cnc2ccccc2c1=O)c1ccc(F)cc1 | -33.5 | 6.4 | -5.6 | 0.3 | 10.3 | 2.6 | 3632
CCNC(=S)NN=C(C)c1cccc(OC)c1 | . | -1.6 | . | 14.1 | 24.8 | 19.5 | .
COc1ccc(NS(=O)(=O)c2ccc(C)c(C(=O)NCc3cccnc3)c2)cc1 | -6.2 | 0.1 | 11.8 | -0.5 | -0.5 | -4.1 | 6139
CCn1nc(CC(=O)Nc2ccc(-n3cnnn3)c(OC)c2)c2ccccc2c1=O | -7.5 | -2.5 | -1.2 | 1.7 | 6.0 | 8.9 | 4655
CN(C)CC(=O)c1c(N)n(Cc2ccccc2)c(=O)n(C)c1=O | -24.9 | -1.3 | -1.5 | 0.8 | 5.7 | 6.2 | 4100
CCC(C)C(Nc1ncnc2scc(-c3ccccc3)c12)C(=O)O (centres undefined) | -13.8 | -6.0 | 2.4 | 14.2 | -5.7 | -6.0 | 3510
CN1CCN(NC(=O)Nc2cc(Cl)cc(Cl)c2)CC1 | -14.5 | 96.7* | 0.0 | 100.3* | 4.1 | 2.9 | 6185
CS(=O)(=O)N1CCc2cc(C(=O)N3CCN(c4ccccc4F)CC3)ccc21 | 5.8 | -0.4 | 1.2 | -3.3 | -0.8 | -10.2 | 6024
O=C(CN1CCOCC1)Nc1cccc(Br)c1 | -23.9 | 5.5 | 1.7 | 1.9 | 4.0 | 6.4 | 10362
O=C(CSC1=NCCN1)C1COc2ccccc2O1 (centres undefined) | -38.6 | 1.3 | 5.2 | 7.9 | 7.9 | 7.3 | 9382
O=C(CCS(=O)(=O)c1ccccc1)Nc1ccccc1N1CCOCC1 | -19.4 | 5.5 | -3.1 | -1.1 | 6.6 | -0.3 | 3206
C=CCCC(Cc1ccc(F)cc1)C(=O)OCC(C)NC(=O)C(CC=C)CC(=O)N(CCO)Cc1ccccc1 (centres undefined) | . | 5.7&-27.9&-13.8 | . | 0.8&4.8&4.5 | 9.2&2.0&8.9 | 3.5&4.5&0.0 | .
O=c1c2[nH]c3cccc(Cl)c3c2ncn1CCN1CCCCC1 | -2.0 | -2.2 | -2.3 | 0.6 | . | . | 4682
CCCNc1c(NC(=O)c2cccs2)c(=O)oc2ccccc12 | -8.0 | 1.2 | -11.0 | 7.2 | -13.4 | -9.7 | 4486
CCOc1ccc(C(=O)SC2=NCCS2)cc1 | -14.3 | 3.3 | -0.5 | 4.8 | 3.3 | 10.5 | 6262
O=C(CCCn1c(=O)[nH]c2cc(Cl)ccc2c1=O)NCCC1=CCCCC1 | -20.7 | -5.6 | -20.6 | 7.1 | 14.8 | 11.1 | 4302
Cc1ccc(S(=O)(=O)N2CCCCC2)cc1NC(=O)c1cc2ccccc2o1 | -11.2 | -10.9 | . | 2.8 | -14.8 | 3.0 | 3860
Cc1cc(=O)oc2cc(OCC(=O)NC3CCCC3)ccc12 | 1.9 | 3.8 | -4.0 | -1.7 | . | . | 5600
O=C(COc1cccnc1[N+](=O)[O-])Nc1cc(Cl)ccc1Cl | -60.5 | 2.0 | . | -2.8 | 5.1 | -15.1 | 4573
CC(NC(=O)CN(C)Cc1ccc(Br)cc1)c1ccccc1 (centres undefined) | -11.1 | 1.7 | -5.3 | 1.3 | 8.5 | 4.6 | 3815
Cn1nnc2cc(C(=O)NC3CC3)ccc21 | -9.9 | -1.7 | -2.0 | -12.8 | 10.6 | 5.7 | 3455
CC(C)(C)c1nc(NCCN2CCOCC2)c2nnn(Cc3ccccc3Cl)c2n1 | -15.7 | 9.9 | 26.5 | 3.1 | 2.7 | 1.4 | 23490*
[N-]=[N+]=NC[C@H](Cc1ccccc1)N1CC[C@@H](OCc2ccccc2)CCC1=O | -14.5 | . | 11.6 | . | . | . | 2960
Cn1nnc(NCc2cc(Br)ccc2OCc2ccccc2F)n1 | -6.8 | 11.0 | -4.7 | -0.6 | 6.8 | -5.1 | 2010
CN1C(=O)/C(=C2/C=Cc3ccccc3N2CCCS(=O)(=O)O)SC1=S | -20.4 | 0.5 | 13.6 | -2.8 | . | . | 2370
Cc1ccc(CNC(=O)c2ccc3c(c2)S(=O)(=O)c2ccccc2C3=O)cc1 | -11.8 | -5.9 | -5.6 | 10.3 | 6.7 | 7.6 | 3748
COc1cccc2cc(C(=O)Nc3ccccc3C(=O)N3CCOCC3)oc12 | 6.1 | 0.0 | 1.8 | -2.6 | 3.4 | -7.9 | .
Cc1cccc(CCNS(=O)(=O)c2ccc3c(c2)oc(=O)n3C)c1 | -16.9 | 14.0 | 11.8 | 8.2 | 7.4 | 8.8 | ?
CC1(C)CC(=O)C(C=Nn2c(C(F)(F)F)nc3ccccc3c2=O)=C(O)C1 | . | 1.4 | . | 4.1 | 2.5 | -5.3 | .
Cc1cc2c(ccc3c2no[n+]3[O-])nn1 | -8.0 | -5.9 | -2.8 | -0.7 | 10.2 | 17.5 | 3478
O=C(Nc1ccccc1F)N1CCc2ccccc2C1 | -59.9 | -0.7 | 0.6 | -0.6 | 4.4 | 15.6 | 7142
CCOC(=O)C(C(=O)OCC)C1OC(=O)c2cc3c(cc21)C(=O)OC3C(C(=O)OCC)C(=O)OCC (centres undefined) | -26.3 | -5.7 | -6.0 | 3.5 | 5.6 | 12.8 | 3468
CC1CCCC(C)N1C(=O)COC(=O)CSc1ccc([N+](=O)[O-])cc1 (centres undefined) | -10.9 | 2.5 | . | 3.3 | 0.6 | -2.0 | 5227
CC(=O)N1CCOc2ccc(S(=O)(=O)N3CCC(C(=O)Nc4ccc(C)cc4)CC3)cc21 | -16.3 | 3.6 | 1.6 | 0.3 | 7.8 | 3.4 | 5389
COc1ccccc1N1CCN(C(=O)C(=O)c2cn(CC(=O)N3CCOCC3)c3ccccc23)CC1 | 2.9 | -2.3 | 13.2 | 0.2 | -1.8 | -4.1 | 4366
COc1ccc(S(=O)(=O)N2CCOCC2)cc1NC(=O)CCc1nc2ccccc2c(=O)[nH]1 | 14.7 | -5.9 | 1.1 | -6.7 | -2.1 | -1.9 | 4484
CN(C)c1ccc(NC(=O)c2cn(-c3ccccc3)nc2-c2cccs2)cc1 | -32.9 | -0.9 | -3.1 | -0.3 | 10.7 | 13.9 | 6416
CC1Cc2ccccc2N1C(=O)COC(=O)c1c2c(nc3ccccc13)CCCCC2 (centres undefined) | -3.8 | 1.5 | 7.7 | -11.5 | 11.8 | 3.6 | 2481
COc1ccc(Cl)cc1NC(=O)NCc1cccnc1 | -9.0 | -7.0 | -6.7 | 0.2 | 7.5 | 2.0 | 4403
O=C(OCC#CCSc1nnc(-c2ccccc2)o1)c1ccco1 | -14.9 | -0.3 | -6.6 | -2.8 | . | . | 4565
COc1ccc(N(C)S(=O)(=O)c2cccc(C(=O)NCC(c3cccs3)N(C)C)c2)cc1 (centres undefined) | 3.9 | -0.4 | -10.1 | 2.0 | 6.7 | 5.9 | 5592
C=C(C)CN1CCN(S(=O)(=O)c2ccc(C)c(N(C)S(=O)(=O)c3ccc(C)cc3)c2C)CC1 | 5.5 | -2.5 | -3.3 | 2.3 | 12.1 | 9.3 | 2408
Cc1ccc(N2C(=O)C3C(c4ccccc4)(C2=O)C3(c2ccccc2)c2ccccc2)cc1 (centres undefined) | -9.6 | -24.1 | -0.6 | -3.8 | -0.8 | 16.5 | 22192*
O=C(NCc1nc2ccccc2[nH]1)c1ccco1 | -19.9 | -4.3 | 14.4 | -9.0 | 16.3 | 12.2 | 3000
CCOC(=O)C1CCCN(S(=O)(=O)c2ccc3c4c(cccc24)C(=O)N3CC)C1 (centres undefined) | -14.9 | -2.7 | . | 1.5 | 3.2 | 5.8 | 3443
CCC1C(=O)C[C@H]2CCN3C(=O)CCCC1C23 (some centres undefined) | -52.3 | 2.7 | . | 4.5 | 0.2 | 3.8 | 3374
CC1CCN(S(=O)(=O)c2cn(CC(=O)Nc3ccc(OC(F)(F)F)cc3)cn2)CC1 | 1.7 | -1.2 | 4.2 | -2.6 | -3.7 | -9.2 | 4552

Profiles from above. Order of screens: PrP UTR inh, Sa ugtP lethal, BJeLR lethal, Sa RN4220 lethal, Mtb hypoxia inh, Mtb hypoxia inh growth, Autofluor counter
`Cc1cc2c(ccc3c2no[n+]3[O-])nn1` is listed as -8.0, -5.9, -2.8, -0.7, 10.2, 17.5, 3478
`COc1ccc(Cl)cc1NC(=O)NCc1cccnc1` is listed as -9.0, -7.0, -6.7, 0.2, 7.5, 2.0, 4403

Continuation:
SMILES | PrP UTR inh | Sa ugtP lethal | BJeLR lethal | Sa RN4220 lethal | Mtb hypoxia inh | Mtb hypoxia inh growth | Autofluor counter
Cn1c(N)c(C(=O)COC(=O)C2CC(O)CN2S(=O)(=O)c2ccc(Cl)cc2)c(=O)n(C)c1=O (centres undefined) | 0.3 | 12.1 | -4.8 | 5.8 | -9.4 | 2.0 | 3420
Cc1nn(-c2ccccc2)c(C)c1/C=N\NS(=O)(=O)c1ccc(Cl)cc1 | -4.3 | . | -8.8 | . | . | . | 2821
Cc1ccc(N2CC(C(=O)Nc3ccc(S(=O)(=O)N4CCCC4)cc3)CC2=O)cc1C (centres undefined) | -10.6 | -1.4 | 8.4 | -1.2 | 1.3 | -14.8 | 4018
CN(C(=O)/C=C/c1ccc([N+](=O)[O-])s1)c1ccccc1 | -13.0 | 5.7 | 6.2 | 6.3 | 11.5 | 10.3 | 3295
O=[n+]1c2c(n([O-])c3c1CCCC3)CCCCC2 | -17.9 | 1.2 | 10.0 | -0.3 | . | . | 5212
CN(C)CCCN(C(=O)c1cccs1)c1nc(-c2ccccc2)cs1 | -8.0 | -0.6 | . | 1.1 | 8.1 | 17.0 | 5392

Just PrP UTR inh and Mtb hypoxia inh growth, for three of the compounds above:
SMILES | PrP UTR inh | Mtb hypoxia inh growth
CCCNc1c(NC(=O)c2cccs2)c(=O)oc2ccccc12 | -8.0 | -9.7
CCOc1ccc(C(=O)SC2=NCCS2)cc1 | -14.3 | 10.5
O=C(CCCn1c(=O)[nH]c2cc(Cl)ccc2c1=O)NCCC1=CCCCC1 | -20.7 | 11.1
